Sfp PPTase inh: qHTS Assay for Inhibitors of Bacillus subtilis Sfp phosphopantetheinyl transferase (PPTase). 310,000 compounds, 3.5% hits. AID 1490, 2009. Biochemical Sfp PPTase activity, qHTS. 4'-phosphopantetheinyl transferase ffp (Bacillus subtilis), Q9F4F7. Potency, µM, for inactives: max response, negative = inhibition, hits mostly inhibitors; active = well fitted inhibition curve with a large enough effect; inconclusive = small, poorly fitted or top-dose-only effect, or another doubt; inactive = no such curve, though single readings can be large or run the other way;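 also: the enzyme is Sfp with the accession as filed and its product quenches rhodamine fluorescence; potency is read from the fitted curve at half-maximal effect; 0% = enzyme reaction without inhibitor and -100% = no enzyme wells; top concentration of the series not given in the record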
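Reaction rates are the 30-min fluorescence difference (ex 525, em 598 nm) in wells containing 15 nM Sfp, 5 uM rhodamine-CoA and 12.5 uM BHQ-2-YbbR at pH 7.6 with 10 mM MgCl2.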
Menin MLL FP FL: qHTS Assay for Inhibitors Targeting the Menin-MLL Interaction in MLL Related Leukemias: Competition With Fluorescein Labeled MLL-derived Peptide. FP activity change, % at 61.4 µM. 290,000 tested, under 10 active. Fluorescence polarization, fluorescein-MLL peptide displacement from menin; inconclusive = falling polarisation curve, or a change in total fluorescence; inactive = total fluorescence flat and polarisation flat or rising; no compound was filed as active; the % refers to the polarisation; negative = inhibition;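 also: % of control where 0% means no effect; inhibitors lower the polarisation; unlabelled MLL peptide was the positive control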
Numbers without * were called inactive; ? = inconclusive; & = joins results of further samples; ! = a repeat was not active; [ ] = another dose, or the depositor's remark.

SMILES | Sfp PPTase inh | Menin MLL FP FL
COC1=C2C[C@H](C)C[C@H](OC)[C@H](O)[C@@H](C)/C=C(/C)[C@H](OC(N)=O)[C@@H](OC)/C=C\C=C(\C)C(=O)NC(=CC1=O)C2=O | 3% | -1.4
COc1ccc(OC)c(NS(=O)(=O)Cc2ccccc2)c1 | ? | -5.6
O=c1[nH]ccc2c(S(=O)(=O)N3CCCNCC3)cccc12 | 6%&10% | 0.3&0.2
CCCC(=O)Nc1ccc(OC[C@@H](O)CNC(C)C)c(C(C)=O)c1 | 22% | 0.1[24.8 µM]
COCCn1c(=O)c(-c2cccc(C#N)c2)nc2cnc(N3CCN(C)CC3)nc21 | 11% | 0.4
COc1cccc(-c2oc3ccccc3c(=O)c2O)c1 | -11% | ?
O=S(=O)(Nc1cccc2cccnc12)c1ccc(Br)cc1 | 0% | -0.5
O=S(=O)(c1ccccc1)N1CCC2(CCCN(c3cccc(-c4ccccc4)c3)C2)CC1 | 10% | ?
C[C@H](Cn1cnc2c(N)ncnc21)OCP(=O)(O)O | 18% | -5.9
CCCCS(=O)(=O)N1C2=NC(C(=O)OC)=C(C(=O)OC)[C@@H]3N(Cc4ccccc4)c4ccccc4[C@]23C[C@H]1C(=O)OC | -16% | -0.3[11.7 µM]
COC(=O)N1CCC2(CCCN(c3ccccn3)C2)CC1 | 3% | 0.1
N#Cc1ccc(CS(=O)(=O)c2nnnn2C2CCCCC2)cc1 | 16% | -1.6
COc1ccc2c(c1)OC(=O)CC2c1ccccc1C (stereo unspecified) | -3% | -2.9[94.6 µM]
COc1ccc2[nH]cc(CCNc3ccnc(-c4ccccc4C)n3)c2c1 | -29% | 0.7
COc1ccc(C(=O)N2CCc3cc(OC)c(OC)cc3C2c2cccc([N+](=O)[O-])c2)cc1 (stereo unspecified) | 3% | 0.9
N[C@H](Cc1c[nH]c2ccccc12)C(=O)O | 4% | -2.6
Cc1ccccc1-c1nc(Nc2ccncc2)c2ccccc2n1 | -24% | 0.8
COc1ccc2[nH]cc(CCNc3cc(-c4ccccc4Cl)ncn3)c2c1 | ? | -0.4
COc1ccc(-c2nc3cnc(Nc4ccccc4)nc3n(C[C@H]3CCCO3)c2=O)cc1 | 22% | ?
FC(F)(F)c1ccccc1-c1cc(NCc2cccnc2)ncn1 | -27% | -0.4
CO/N=C\C[C@@H]1C=C[C@H](OC(C)=O)[C@H](COC(C)=O)O1 | 4% | -0.3[11.7 µM]
COc1ccccc1-c1nccc(NCc2ccccc2)n1 | -4% | 7.4
COc1ncc2nc(CCc3ccccc3)c(=O)n(Cc3ccc(F)cc3)c2n1 | ? | 3.1
N#Cc1cccc(-c2nccc(NCc3cccs3)n2)c1 | -2% | -2.2
COC(=O)[C@@]1(Cc2ccc(F)cc2)[C@H]2c3cc(C(=O)N4CCCC4)n(Cc4c(CO)[nH]cc(C)c4=O)c3C[C@H]2CN1C(=O)c1ccccc1 | 1% | 0.9
C=CCc1ccc(O)c(OC)c1 | 2%&22%&5% | -12&-2.7&-0.4
O=C(O)c1ccc2c(c1)C(=O)N([C@H](Cc1cccc3ccccc13)C(=O)O)C2=O | 1% | -1.7
C[C@@H](C(=O)NCCF)[C@H]1C[C@]1(C)[C@H](NC(=O)OCc1ccccc1)c1ccccc1 | 24% | 0.2
C[C@@H](O)CCC[C@H](O)/C=C/[C@H]1[C@H](O)CC(=O)[C@@H]1C/C=C\CCCC(=O)O | 6% | -0.1
COc1cc2c(cc1OC)C(c1c[nH]c3ccccc13)NCC2 (stereo unspecified) | 26% | -0.1
COc1ccc(-c2c(O)c3c(OC)c4c(cc3oc2=O)OC(C)(C)C=C4)cc1 | -5% | -0.2
CSCC[C@H](NC(=O)[C@H](CO)NC(=O)[C@H](Cc1ccc(O)cc1)NC(=O)[C@@H](N)CO)C(=O)N[C@@H](CCC(=O)O)C(=O)N[C@@H](Cc1cnc[nH]1)C(=O)N[C@@H](Cc1ccccc1)C(=O)N[C@@H](CCCNC(=N)N)C(=O)N[C@@H](Cc1c[nH]c2ccccc12)C(=O)NCC(=O)N[C@@H](CCCCN)C(=O)N1CCC[C@H]1C(=O)N[C@H](C(=O)NCC(=O)N[C@@H](CCCCN)C(=O)N[C@@H](CCCCN)C(=O)N[C@@H](CCCNC(=N)N)C(=O)N[C@@H](CCCNC(=N)N)C(=O)N1CCC[C@H]1C(=O)N[C@H](C(=O)N[C@@H](CCCCN)C(=O)N[C@H](C(=O)N[C@@H](Cc1ccc(O)cc1)C(=O)N1CCC[C@H]1C(=O)N[C@@H](CC(N)=O)C(=O)NCC(=O)N[C@@H](C)C(=O)N[C@@H](CCC(=O)O)C(=O)N[C@@H](CC(=O)O)C(=O)N[C@@H](CCC(=O)O)C(=O)N[C@@H](CO)C(=O)N[C@@H](C)C(=O)N[C@@H](CCC(=O)O)C(=O)N[C@@H](C)C(=O)N[C@@H](Cc1ccccc1)C(=O)N1CCC[C@H]1C(=O)N[C@@H](CC(C)C)C(=O)N[C@@H](CCC(=O)O)C(=O)N[C@@H](Cc1ccccc1)C(=O)O)C(C)C)C(C)C)C(C)C | -8% | -15
COc1ccc(-c2coc3cc(O)ccc3c2=O)c(O)c1O | -99% | -0.7
CCCCc1nc2c(c3c1C[C@H](C)OC3)CN(C(=O)c1cc(I)ccc1F)CC2 | 12% | -1.7[11.7 µM]
NCC1OC(OC2C(N)CC(N)[C@@H](O)[C@@H]2OC2O[C@H](CO)[C@@H](O[C@@H]3OC(CN)C(O)C(O)C3N)C2O)C(N)C(O)C1O (stereo partly specified) | 17% | 0.0
COC(=O)C1=C(C)N(Cc2ccccc2)C2=C(C(C)=O)C(c3ccccc3)[C@@](O)(C(=O)OC)C(=O)N2C1c1ccccc1 (stereo partly specified) | -4%&7% | -0.3&0.4[11.7 µM]
COC(=O)c1ccc(C(NC(=O)c2ccco2)[C@]2(C)C[C@H]2C2CCCCC2)cc1 (stereo partly specified) | 10% | 6.6
CCN(CC)CCCCC1CCN(CC(=O)N2c3ccccc3C(=O)Nc3cccnc32)CC1 | 13% | 0.5
CC[C@H](C)[C@H](NC(=O)[C@H](C)NC(=O)[C@H](Cc1cnc[nH]1)NC(=O)[C@@H]1CCCN1C(=O)CNC(=O)[C@H](CC(C)C)NC(=O)[C@H](CC(C)C)NC(=O)[C@H](Cc1ccc(O)cc1)NC(=O)CNC(=O)[C@H](C)NC(=O)[C@H](CO)NC(=O)[C@H](CC(N)=O)NC(=O)[C@H](CC(C)C)NC(=O)[C@@H](NC(=O)[C@H](Cc1c[nH]c2ccccc12)NC(=O)CN)[C@@H](C)O)C(=O)O | -11% | -0.3
COc1ccc(C2=CC3=CC(=O)C(C)(O)C(=O)C3=CO2)cc1 (stereo unspecified) | -19% | 9.5
CC1=C(/C=C/C(C)=C\C=C\C(C)=C\C(=O)O)C(C)(C)CCC1 | 13%&-9%&-29%&12% | 7.8&-6.0
COC(=O)C(C(=O)OC)[C@@H](NC(=O)OCc1ccccc1)c1ccccc1 | 21% | 0.7
NCCC(O)(P(=O)(O)O)P(=O)(O)O | -3%&6% | 5.9&3.1
N#Cc1ccc(C[C@H](C(=O)O)N2C(=O)c3ccc(C(=O)O)cc3C2=O)cc1 | 20% | -0.1
C/C(CCN1CCCCc2nc(C)c(C)cc21)=N\OC[C@@H](O)COCc1ccco1 | 13% | 0.9[11.7 µM]
Cc1cnc(CNc2ncncc2-c2cccnc2)cn1 | -13% | -11
c1cncc(-c2nc(-n3ccnc3)c3ccccc3n2)c1 | 20% | ?
C=C1C2c3ccccc3C(CC2(C)O[Si](C)(C)C)N1C(=O)OC (stereo unspecified) | -1% | -1.8[11.7 µM]
COc1cc2ncnc(Nc3ccc(F)c(Cl)c3)c2cc1OCCCN1CCOCC1 | -18% | 0.2
C=C(C)C(O)/C=C/CCCCCCC (stereo unspecified) | 11% | -2.1[11.7 µM]
Cc1ccccc1-c1cc(Nc2ccccc2)ncn1 | 9% | 3.5
CNc1cc(-c2ccccc2C(F)(F)F)ncn1 | 17% | 21
COc1cccc([C@@H]2Oc3ccc(Br)cc3[C@H](O)[C@H]2O)c1 | -17% | -1.1
CCC1=C2CC[C@H]3C(=O)N(CC)C(=O)[C@H]3[C@H]2[C@@]2(Cc3ccccc3)C(=O)N(CC3CC3)C(=O)N2C1=O | 17% | 1.4
COC(=O)C(NS(=O)(=O)CCl)C(C)C (stereo unspecified) | 10% | -9.0
Cc1ncc(C[n+]2csc(CCOP(=O)(O)OP(=O)(O)O)c2C)c(N)n1 | 23%&22% | -0.1&2.8
Cn1c(=O)n2n(c1=O)[C@H]1[C@H](O)[C@H]3O[C@@H]3/C(=N/OCc3ccccc3)[C@@H]1CC2 | 12% | -3.4[11.7 µM]
Cc1cc(=O)oc2cc(O)c(O)cc12 | 4% | -0.7
CCCCCCCCCCCC[n+]1ccc2ccccc2c1 | -27% | -22
CCN(CC)CCCn1c(-c2ccccc2)nc2c(N(CCOC)CCOC)nc(C)nc21 | 23% | 0.1
(further entries)
SMILES | Sfp PPTase inh | Menin MLL FP FL
CCOC(=O)C1CSC(Cc2ccc(OCc3ccc([N+](=O)[O-])cc3)cc2)N1 (stereo unspecified) | ? | 1.0
COCCNc1nc(C)nc2c1nc(-c1ccccc1)n2CC1CCN(C)CC1 | 28% | 3.1
COc1ccc(-c2nc3cnc(N4CCN(C)CC4)nc3n(Cc3cccs3)c2=O)cc1 | -3% | ?
CO[C@@H]1/C=C\CC(=O)N[C@@H](C)C(=O)OC[C@H](NS(=O)(=O)c2ccc(C)cc2)[C@H](C)/C=C\CC(=O)OC[C@H]1C | 29% | 0.1[11.7 µM]
C/C(=C\C[Si](C)(C)C)CCC=O | 63µM* | -1.8
Cc1ccccc1-c1cncnc1N(C)Cc1ccco1 | 50µM* | ?
CO[C@@H]1COC(=O)[C@H]2CCCN2C(=O)C/C=C\[C@@H](C)[C@H](OC)COC(=O)[C@H]2CCCN2C(=O)C/C=C\[C@H]1C | -14% | 2.9[11.7 µM]
COc1ccccc1CNc1cc(-c2ccc(C(=O)N(C)C)cc2)ncn1 | 16% | 0.5
CN(C)c1nc(-c2ccccc2C(F)(F)F)nc2ccccc12 | 12% | -1.9
CCCCC/C=C/C=C1/C(=O)C=C[C@@H]1C/C=C\CCCC(=O)O | 56µM*! | ?
FC(F)(F)c1cc(CN2CCC3(CCNCC3)CC2)cc(C(F)(F)F)c1 | 16% | -3.2
CC1CCC2C(=O)OC(COc3ccc(C(C)(C)C)cc3)CN2C1c1ccc(Br)cc1 (stereo unspecified) | 15%&18%&6%&6%&9% | -2.2&1.4&-1.2&0.2&-0.8[11.7 µM]
Cc1ccc(-c2cc(C3C4C=CCC(C)C4C(=O)N3Cc3ccccc3)ccc2F)cc1 (stereo unspecified) | -15% | 1.5
C=Cc1c(C)c2cc3nc(cc4[nH]c(cc5nc(cc1[nH]2)C(C)=C5CCC(=O)O)c(CCC(=O)OC)c4C)[C@@]1(C)C3=CC=C(C(=O)OC)[C@H]1C(=O)OC (tested in a mixture with another compound) | ? | 11[24.8 µM]
CN(C)c1ncc2nc(CCc3ccccc3)c(=O)n(CCc3ccccc3)c2n1 | -4% | 8.8
C[C@@H](NCc1cc(Br)cc2[nH]c(=O)c(=O)[nH]c12)P(=O)(O)O | ? | ?
C1CCN2C[C@H]3C[C@H](CN4CCCCC34)C2C1 (stereo partly specified) | -53%&2% | -5.6&-1.1
Cc1cccc(CN2CC34C=CC(CC3S2(=O)=O)O4)c1 (stereo unspecified) | 17% | 4.6
COc1cc(C(=O)O[C@H]2C/C(C)=C/CC/C(C)=C/[C@@H](O)C2C(C)C)ccc1O (stereo partly specified) | 33%[activator] | 4.4
CNCc1ccccc1 | 26%&-13% | -0.4&-3.6

3 compounds already listed, arranged by the value under Sfp PPTase inh, rising:
smiles	Sfp PPTase inh
COc1ccc(-c2nc3cnc(N4CCN(C)CC4)nc3n(Cc3cccs3)c2=O)cc1	-3%
CN(C)c1nc(-c2ccccc2C(F)(F)F)nc2ccccc12	12%
COCCNc1nc(C)nc2c1nc(-c1ccccc1)n2CC1CCN(C)CC1	28%

Following part.
SMILES | Sfp PPTase inh | Menin MLL FP FL
C=C1C(n2cnc3c(=O)[nH]c(N)nc32)C[C@H](O)[C@H]1CO (stereo partly specified) | 19% | -1.2
CC1OC(OCC2OC(Oc3c(-c4ccc(O)c(O)c4)oc4cc(O)cc(O)c4c3=O)C(O)C(O)C2O)C(O)C(O)C1O (stereo unspecified) | -19% | 14
N#CCCn1c(=O)cnc2cnc(N3CCNCC3)nc21 | 22% | -11
CCCCc1nc2c(c3c1CC(C)OC3)CN(CCC(C)C)CC2 (stereo unspecified) | 12% | -2.2[11.7 µM]

A run of entries taken from the entries so far:
SMILES | Sfp PPTase inh | Menin MLL FP FL
CNCc1ccccc1 | 26%&-13% | -0.4&-3.6
C=C1C(n2cnc3c(=O)[nH]c(N)nc32)C[C@H](O)[C@H]1CO (stereo partly specified) | 19% | -1.2

Compound activity: PubChem BioAssay, National Center for Advancing Translational Sciences (NCATS)

These rows are one share of the data (hit frequency here may not be typical).
